# NS1 inh: qHTS Assay for Inhibitors of Influenza NS1 Protein Function | AID 2326, 2010 | S. cerevisiae slowed by influenza A NS1, growth recovery by OD600 | Potency, µM (top dose mostly 46.1 µM), without a hit: at the highest dose activity, positive = more growth | 0.4% of 270,000 active; also: actives are rising curves; nearly all actives have a fitted effect of over 50% in size
#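 OD600 was taken as the measure of yeast growth restored by compound in an NS1-expressing S. cerevisiae strain. Cells had been washed out of glucose medium and diluted 1:100 into galactose -URA medium, pH 6.0.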
# SARS PLP yeast: qHTS of Yeast-based Assay for SARS-CoV PLP | S. cerevisiae expressing SARS-CoV PLpro, growth rescue; control for the full effect not named in the record | Potency, µM (series often up to 32.9 µM), for inactives: at the highest dose activity, positive = growth rescue | 0.19% of 330,000 active | AID 485353, 2010; also: 0% is about no effect; nearly all actives have a fitted effect of over 55% in size; growth read by luminescence after 48 h
# Cruzain Triton: qHTS Assay for Promiscuous and Specific Inhibitors of Cruzain (with detergent). Cruzipain (Trypanosoma cruzi), P25779. purified cruzain, Z-FR-AMC fluorescence, 0.01% Triton. Potency, µM, without a hit: max response, negative = inhibition, actives largely listed as inhibitors. 0.43% of 200,000 active. AID 1478, 2009; active = well fitted curve in the direction sought with a large enough effect; inconclusive = small, poorly fitted or top-dose-only effect, or another doubt; inactive = no such curve, though single readings can be large; an effect the other way counts as inactive or inconclusive;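 also: plate controls were neutral wells for no effect and buffer without enzyme for full effect; nearly all actives have a fitted effect of over 40% in size; top concentration of the series not given in the record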
# Target sequence (P25779 123-467 limits assumed): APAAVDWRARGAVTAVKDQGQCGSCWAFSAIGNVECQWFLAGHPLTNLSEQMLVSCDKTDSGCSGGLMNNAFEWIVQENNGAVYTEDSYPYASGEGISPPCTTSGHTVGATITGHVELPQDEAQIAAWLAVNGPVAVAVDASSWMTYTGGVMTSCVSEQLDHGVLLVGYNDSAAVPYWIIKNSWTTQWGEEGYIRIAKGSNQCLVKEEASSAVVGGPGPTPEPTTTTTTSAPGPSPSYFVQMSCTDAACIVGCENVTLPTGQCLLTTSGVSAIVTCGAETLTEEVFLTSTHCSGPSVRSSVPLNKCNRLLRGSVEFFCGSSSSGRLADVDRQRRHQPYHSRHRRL
#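 Detergent-containing arm of a paired screen for aggregation-based inhibition: 0.01% Triton X-100 present. Cruzain at 1.5 nM cleaved 2 uM Z-FR-AMC at pH 5.5 with 5 mM DTT; AMC fluorescence gain over 60 s measured activity.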
# Cruzain noTriton: qHTS Assay for Promiscuous and Specific Inhibitors of Cruzain (without detergent) | purified cruzain, Z-FR-AMC fluorescence, no detergent | Potency, µM, inactives show max response, negative = inhibition, usual class: inhibitors | 2.3% of 200,000 active | AID 1476, 2009; active = well fitted curve in the direction sought with a large enough effect; inconclusive = small, poorly fitted or top-dose-only effect, or another doubt; inactive = no such curve, though single readings can be large; an effect the other way counts as inactive or inconclusive;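 also: plate controls were enzyme without inhibitor for no effect and buffer without enzyme for full effect; nearly all actives have a fitted effect of over 40% in size; top concentration of the series not given in the record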
#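 Purified cruzain at 1.5 nM, pre-incubated 15 min with compound at room temperature in 100 mM sodium acetate pH 5.5, 5 mM DTT, 0.00005% Triton X-100. Reaction started with 2 uM Z-FR-AMC; AMC fluorescence increase over 60 s gives rate.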
# Marburg entry inh: qHTS for inhibitors of binding or entry into cells for Marburg Virus; Marburg virus pseudotyped entry inhibition, cell reporter; control for the full effect not named in the record; about a third of the inactives were read at about 46 µM; AID 540276, 2011; Potency, µM (highest dose often 37.8 µM), without a hit: at the top dose activity change, negative = inhibition, usual class: inhibitors; 1.8% of 300,000 active; active = well fitted inhibition curve with a large enough effect; inconclusive = small, poorly fitted or top-dose-only effect, or effect the other way; inactive = flat fitted curve, though single readings scatter; tested in HEK293 cells; about a fifth of its hits are not listed in these tables; also: % is scaled to controls: 0 for no effect and ±100 for the full control effect; luciferase read-out
# LASV entry inh: qHTS for Inhibitors of binding or entry into cells for Lassa Virus; Potency, µM (highest dose often 37.9 µM), inactives show at the top dose activity change, negative = inhibition, most hits filed as inhibitors; Lassa virus pseudotype entry inhibition, cell reporter; control for the full effect not named in the record; 1.2% of 300,000 active; active means well fitted inhibition curve with a large enough effect; inconclusive means small, poorly fitted or top-dose-only effect, or effect the other way; inactive means flat fitted curve, though single readings scatter; tested in HEK293 cells; also: % is scaled to controls: 0 for no effect and ±100 for the full control effect; nearly all actives have a fitted effect of over 50% in size; luciferase read-out
# StopGo reporter: High Throughput Screening for Foot and Mouth Disease Virus Antivirals. human cells with a luciferase reporter of 2A StopGo recoding; control for the full effect not named in the record. Potency, µM (highest dose often 57.9 µM), without a hit: at the top dose signal change, negative = less light. 1.2% of 410,000 active; active = well fitted falling curve with a large enough effect; inconclusive = small, poorly fitted or top-dose-only effect; inactive = no such curve, though single readings can be large or run the other way; tested in HEK293T cells; also: % is scaled to controls: 0 for no effect and ±100 for the full control effect; nearly all actives have a fitted effect of over 45% in size; luciferase light after 4 h
# RE007 growth inh: qHTS Assay for Inhibitors of the HIV-1 protein Vpr; S. pombe RE007 Vpr strain, BacTiter-Glo ATP luminescence, 24 h; control for the full effect not named in the record; Potency, µM (doses to about 92.2 µM), without a hit: at the highest dose activity change, negative = less growth; 0.21% of 360,000 active; AID 651644, 2012; active = well fitted falling curve with a large enough effect; inconclusive = small, poorly fitted or top-dose-only effect; inactive = no such curve, though single readings can be large or run the other way;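 also: % is scaled to controls: 0 for no effect and ±100 for the full control effect; nearly all actives have a fitted effect of over 50% in size; the assay follows cell death caused by Vpr and the record does not say whether a fall means rescue or toxicity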
#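 Fission yeast RE007 carrying one integrated HIV-1 vpr copy, seeded at OD 0.01 in PMG+AL medium with 23 nL pinned compound. Grown 24 h at 30 degrees; viability read by BacTiter-Glo luminescence after 5 min.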
# An asterisk follows results filed as active; ? = inconclusive; . = no result given; & = joins results of further samples; [ ] = remark or other dose. Unless noted, calls follow the shape of the dose curve; as a rule, active means well fitted rising curve with a large enough effect; inconclusive means small, poorly fitted or top-dose-only effect; inactive means no such curve, though single readings can be large or run the other way. Potency is read from the fitted curve at half-maximal effect. This is a random part of the collection. About 4.8% of those tested had a hit in this group.
SMILES,NS1 inh,SARS PLP yeast,Cruzain Triton,Cruzain noTriton,Marburg entry inh,LASV entry inh,StopGo reporter,RE007 growth inh
CN1CCN(S(=O)(=O)c2ccccc2)CC1,-5%,-2%,.,.,0%&0%,?,-13%,3%
O=C(/C=C/c1ccc(Cl)cc1)NC(=S)N1C[C@H]2C[C@H](C1)c1cccc(=O)n1C2,3%,-4%,.,.,.,.,7%,-11%
Cc1ccc(C(=O)Nc2c3c(nn2-c2ccccc2)CS(=O)(=O)C3)cc1C,-9%,7%,.,.,-24%,4%,6%,14%
CCN1CCN(CCNC(=O)c2ccc3c(c2)N(Cc2cccc(Cl)c2)C(=O)c2ccccc2S3=O)CC1 (stereo not given),-1%,2%,.,.,?,?,27%,5%
Cn1c(-c2ccccc2)c[n+]2c1CCCCC2,2%,4%,.,.,?,11%,-2%,-7%
CC1CC(C)CN(CCOc2cccc(Cl)c2Cl)C1 (stereo not given),-10%,-16%,-5.0%,-13%,?,?,-23%,-17%
NS(=O)(=O)c1cccc(NC(=O)CC23CC4CC(CC(Br)(C4)C2)C3)c1,6%,0%,.,.,-21%[46.1 µM],2%[46.1 µM],-4%,-16%
O=c1[nH]cnc2c1N=C(c1cccc([N+](=O)[O-])c1)CC(c1ccccc1)N2 (stereo not given),7%,-2%,.,.,1%[46.1 µM],-4%[46.1 µM],-6%,-26%
Cc1ccc(S(=O)(=O)NCC(c2ccccc2)N2CCN(CCC#N)CC2)cc1 (stereo not given),-1%,24%,1.4%,8%,-7%[46.1 µM],0%,-13%,-8%
Cc1ccccc1CN1CCN(C(=O)CC(C)C)CC1,-18%,-7%,.,.,.,.,-3%,5%
Cc1ccc(NC(=O)CSc2nnc([C@H](C)NC(=O)OC(C)(C)C)o2)c(C)c1,1%,0%,.,.,0%[46.1 µM],0%,1%,8%
Nc1[nH]c(=S)nc2nc(-c3ccccc3)c(-c3ccccc3)nc12,24%,1%,.,.,?,?,?,48%
COCCOC(=O)c1c(C)nc(SCC(=O)Nc2ccc(OC)cc2)c(C#N)c1-c1ccco1,-5%,7%,-0.7%,20%,4%,-4%,-10%,-8%
O=C(NCC1CCCO1)c1ccc(OC2CCN(C(=O)C3CC3)CC2)cc1 (stereo not given),-3%,-2%,.,.,6%[46.1 µM],4%[46.1 µM],16%,7%
COc1ccc(CNC(=O)C(C)NCc2ccc(S(N)(=O)=O)cc2)cc1 (stereo not given),?,2%,.,.,-2%[46.1 µM],-11%,-7%,9%
CCNC(=O)NC(=O)C(C)OC(=O)[C@H](C)NS(=O)(=O)c1c(C)c(C)cc(C)c1C (stereo not given in full),-4%,-1%,.,.,.,.,41%[activator],9%
CCN(CC(=O)Nc1cccc(C(C)=O)c1)S(=O)(=O)c1ccccc1,6%,-1%,.,.,-4%,-3%,-11%,2%
COc1ccc(C(=O)Nc2ccc3c(c2)N(C2CCCC2)C(=O)c2ccccc2S3)cc1OC,.,.,-0.8%,-7%,.,1.3µM*,0%,.
Cc1ccc(NC(=O)CSC(C)c2nc3ccccc3c(=O)[nH]2)cc1 (stereo not given),6%,5%,.,.,14%,20%,-9%,8%
O=C(NCCc1ccc(Cl)cc1)Nc1ccc(F)cc1,-13%,-2%,.,.,4%[46.1 µM],-3%,12%,-15%
CN(C)c1nc(N)nc(CSc2ccccn2)n1,-2%,-5%,8.7%,1%,?,3%,45%[activator],-2%
Cc1nc2ccc(-c3nc4ccc(N)cc4[nH]3)cc2[nH]1,3%,-2%,.,.,?,?,7%,-13%
CC(=O)N/C(=C\c1ccccc1)C(=O)OCC(=O)N(C)C1CCS(=O)(=O)C1 (stereo not given),.,?,.,.,17%,10%,-8%,16%
Cc1ccccc1C(=O)NC1CC2CCCC(C1)N2Cc1ccccc1 (stereo not given),3%,-6%,.,.,.,.,-21%,13%
CC/C=C/CC(=O)N[C@@H](c1ccccc1)[C@@H](O)C(=O)O[C@H]1C[C@@]2(O)[C@@H](OC(=O)c3ccccc3)C3[C@](C)(C(=O)[C@H](OC(C)=O)C(=C1C)C2(C)C)[C@@H](O)C[C@H]1OC[C@@]31OC(C)=O (stereo not given in full),-18%,0%,.,.,.,.,0%,5%
O=c1cc(-c2ccc(O)cc2)oc2c([C@@H]3O[C@H](CO)[C@@H](O)[C@H](O)[C@H]3O)c(O)c([C@@H]3O[C@H](CO)[C@@H](O)[C@H](O)[C@H]3O)c(O)c12,-2%,2%,-8.9%,-2%,?,-1%,-1%,10%
CC1CN(Cc2ccccc2)C(=O)NC1=O (stereo not given),.,.,.,.,?,9%[46.1 µM],-9%,8%
CCC(C)N(C)Cc1cccc(C2(O)CCN(S(=O)(=O)c3ccc(F)cc3)CC2)c1 (stereo not given),-3%,0%,1.7%,-2%,?,-10%,-9%,-3%
Cc1cc(C)c(S(=O)(=O)n2nc(C)c(Br)c2C)c(C)c1,-1%,26%,-3.3%,2%,5%,7%,-19%,-8%
COC(=O)Cn1nc(C)c2ccccc2c1=O,9%,19%,-3.3%,14%,3%[46.1 µM],16%,4%,-1%
O=C(COC(=O)c1ccc(O)cc1O)c1ccc2c(c1)OCO2,1%,-2%,.,.,0%,-21%,17%,-10%
COc1ccc(NCC(=O)n2c(C)c(C)c3ccccc32)cc1OC,-5%,1%,.,.,0%[46.1 µM],?,-14%,-5%
CCOC(=O)C1CCN(C(=O)CN(c2ccc(OC)cc2)S(=O)(=O)c2c(C)noc2C)CC1,-5%,-5%,2.1%,24%,3%,.,-6%,-3%
Cn1cc(S(=O)(=O)N2CCCCC2)cc1C(=O)N1CCN(c2ccccc2F)CC1,.,.,-1.6%,26%,.,-3%[46.1 µM],-10%,.
Cc1ccc(C)c(N2CCN(CCCNC(=O)C3COc4ccccc4C3)CC2)c1 (stereo not given),.,.,0.5%,5%,.,-5%[46.1 µM],-29%,.
CCOC(=O)Cn1c2c(c(-c3ccccc3OC)cc1=O)CCCC2,-99%,1%,5.2%,3%,1%,-20%[14.3 µM],7%,-2%
Cc1ccc(S(=O)(=O)N(c2ccc(Br)cc2)C2C=CS(=O)(=O)C2)cc1 (stereo not given),3%,1%,.,.,.,.,-12%,-8%
CN1CCN(C(=O)CN(c2cccc(Br)c2)S(=O)(=O)c2ccccc2)CC1,-3%,1%,.,.,.,.,18%,2%
CCCCCc1nc2c(=O)n(C)c3ccccc3c2o1,-31%,-6%,1.0%,1%,2%,16%,32%[activator],-18%
Cc1ccc(Cn2nc(C)cc2C(=O)Nc2ccc(Cl)cc2)cc1,0%,-1%,.,.,-29%[46.1 µM],3%,2%,3%
Cc1ccc(C)c(CSc2cn(CC(=O)N3CCCC3)c3ccccc23)c1,.,.,-11%,?,.,?,10%,.
CC1(C)COC(c2cccn2Cc2ccccc2Cl)=N1,3%,-7%,-3.3%,-1%,14%,14%,18%,22%
N#Cc1c(NCCN)nc(-c2ccco2)c2c1CCCC2,4%,-16%,-7.3%,25µM*,?,-16%,?,-10%
COc1ccc(C(=O)NNC(=O)c2cccc(S(=O)(=O)N3CCOCC3)c2)cc1,.,-5%,.,.,22%[46.1 µM],-14%[46.1 µM],-2%,-17%
COc1ccc(CNC(=O)C2CCN(S(=O)(=O)N3CCCCC3)CC2)cc1,6%,1%,.,.,.,.,-18%,-2%
O=C(Nc1ccc(F)c(Cl)c1)c1ccc2c(=O)n3c(nc2c1)CCCCC3,-33%,-1%,-7.8%,7%,?,?,-18%,10%
Cc1ccc(/C=N/NC(=O)C[n+]2ccccc2)o1,-6%,0%,.,.,16%[46.1 µM],-6%,4%,-4%
Cc1c(C(=O)N2CCN(c3ncccn3)CC2)oc2ccc(F)cc12,.,-26%,.,.,-12%[46.1 µM],-24%[46.1 µM],-30%,-9%
COc1ccc(C2C(C#N)=C(N)N(N(C)C)C3=C2C(=O)CC(C)(C)C3)cc1 (stereo not given),0%,2%,.,.,0%,.,9%,-3%
CCN(CC(=O)NC1CCS(=O)(=O)C1)C(=O)COc1ccccc1-c1ccccc1 (stereo not given),0%,4%,0.7%,?,2%,-15%,-2%,0%
C[C@H](NC(=O)C1CCN(S(=O)(=O)c2ccccc2)CC1)C(=O)NCc1ccccn1,-17%,-3%,.,.,.,.,15%,-2%
C=C(C)CNC(=S)N/N=C/c1ccco1,-30%,4%,.,.,?,2%[46.1 µM],-1%,-1%
CN(C)/C=C1/C=C(C=O)OC1=O,-3%,0%,.,.,24%,-17%,9%,2%
C=CCn1c(SCc2ccccc2Cl)nnc1-c1sc2nc(C)cc(C)c2c1N,4%,0%,.,.,0%,.,4%,2%
c1coc(Cn2c(-c3ccco3)nc3ccccc32)c1,-150%,-3%,-6.6%,-6%,-9%,-1%,-8%,-15%
OCCCNc1cc(-c2ccccc2)nc2cc(-c3ccc(F)cc3)nn12,-4%,-8%,.,.,?,?,-8%,1%
COc1ccc(C(=O)CSc2nnnn2Cc2ccccc2)cc1,-41%,-18%,-3.5%,0%,4%,13%,12%,-2%
Nc1c(SCCC(=O)O)ccc2c1C(=O)c1ccccc1C2=O,-38%,-6%,.,.,.,.,10%,-7%
O=C1CC(N(C(=O)c2ccco2)c2ccc(F)cc2)C(=O)N1c1ccc(F)cc1 (stereo not given),5%,10%,2.5%,9%,-16%,20%,-16%,15%
CSc1cccc(NS(=O)(=O)c2ccc3[nH]cc(C(=O)N4CCCC4)c(=O)c3c2)c1,.,.,-4.2%,2%,11%[46.1 µM],6%[46.1 µM],1%,.
Cc1c(NN=C(C#N)C#N)c(=O)n(-c2ccccc2)n1C,.,2%,.,.,28%[46.1 µM],-15%,14µM*,-1%

# Screens (PubChem BioAssay)
